D2 PAM: positive allosteric modulators of human D2 dopamine receptor; DiscoveRx D2 beta-arrestin cells, luminescence, 90 min; 100% = 57 uM dopamine signal; AID 624464; 0.23% of 360,000 active; potentiation, % (no concentration beside the values); active = potentiation of 50% or more; inconclusive = 30% to 50%; inactive = 30% or less;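 further: compound concentration not given in the record; tested on top of an EC20 dose of dopamine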
Target sequence (P14416 whole entry, looked up): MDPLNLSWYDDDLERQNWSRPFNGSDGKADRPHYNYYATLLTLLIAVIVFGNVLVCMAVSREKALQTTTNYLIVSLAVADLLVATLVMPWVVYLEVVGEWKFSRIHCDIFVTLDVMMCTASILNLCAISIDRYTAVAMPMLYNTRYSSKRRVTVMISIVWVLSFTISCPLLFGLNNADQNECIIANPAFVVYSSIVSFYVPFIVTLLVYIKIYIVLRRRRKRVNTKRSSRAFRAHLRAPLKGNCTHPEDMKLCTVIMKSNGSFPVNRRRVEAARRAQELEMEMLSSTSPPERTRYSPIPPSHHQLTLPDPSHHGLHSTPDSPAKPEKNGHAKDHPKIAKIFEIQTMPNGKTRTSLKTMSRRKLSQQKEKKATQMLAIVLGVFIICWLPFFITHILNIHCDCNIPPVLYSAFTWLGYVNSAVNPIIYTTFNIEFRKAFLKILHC
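PathHunter beta-arrestin assay in DiscoveRx D2 cells. Compounds were added with an EC20 of dopamine (50 nM final) for 90 min at 37 deg C. Luminescence was read 1 h after detection reagent, with 57 uM dopamine as the EC100 control.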
CtBP-E1A blk: CtBP/E1A binding inhibition | AlphaScreen GST-E1A/His-CtBP binding, 1536-well; active compounds read low; control for the full effect not named in the record | activity change, % (concentration not given with the values) | 0.49% of 340,000 active | AID 651724; in the data active means activity change below about -65%; inconclusive means about -30% to -65%; inactive means above about -30%; further: on the % scale 0 is the no-effect control and ±100 the full control effect
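AlphaScreen with 125 nM GST-E1A and 125 nM His-CtBP (5X stocks) in Tris pH 8.0, 300 mM NaCl, BSA, Tween 20, TCEP. Compounds preincubated 2 h at 37 deg C, then glutathione donor/nickel acceptor beads added for 1 h at 37 deg C in dark.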
gsp agonist: agonists of gsp mutant (McCune-Albright syndrome); gsp mutant cells, cAMP HTRF, 30 min; control for the full effect not named in the record; Potency, µM (series often up to 76.9 µM), without a hit: top-dose activation (cAMP increase), actives largely listed as activators; 0.13% of 340,000 active; AID 624287; active = well fitted activation curve with a large enough effect; inconclusive = small, poorly fitted or top-dose-only effect, or another doubt; inactive = no such curve, though single readings can be large or run the other way; cell line not stated here;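 further: phosphodiesterase inhibitor Ro 20-1724 added with compounds to block cAMP breakdown; potency means the concentration at half of the fitted maximal effect; nearly all actives have a fitted effect of over 60% in size; about a fifth of the inactives were tested at one dose only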
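Cells in DMEM/10% FBS with G418 were pretreated with compounds in DMSO plus […] (300 uM stock) for 30 min at 37C. cAMP was measured by HTRF (cAMP-d2 plus anti-cAMP antibody-K) after 30 min at room temperature.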
Six1-Eya2 blk: Six1/Eya2 interaction inhibition; AlphaScreen GST-Six1/His-Eya2 binding, biochemical; active compounds read low; control for the full effect not named in the record; activity change, % (test concentration not listed); 0.56% of 360,000 active; in the data active = activity change below about -65%; inconclusive = about -30% to -65%; inactive = above about -30%; further: on the % scale 0 is the no-effect control and ±100 the full control effect
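Compounds are tested against tagged Six1 and Eya2 proteins bridged by glutathione donor and nickel acceptor beads; after a one-hour incubation at 37 °C without light, AlphaScreen emission is recorded.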
gsp antag: gsp mutant antagonism; gsp-mutant cells, cAMP HTRF, 30 min; control for the full effect not named in the record; Potency, µM (highest dose often 76.9 µM), for inactives: at the highest dose activity change, negative = inhibition, most hits filed as inhibitors; 0.4% of 340,000 active; AID 624288; active = falling curve of any shape with a large fitted effect; inconclusive = falling curve, mostly with a smaller effect; inactive = flat or rising curve; cell line not stated here;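 further: intracellular cAMP measured with PDE inhibitor Ro 20-1724 present during compound exposure; potency means the concentration at half of the fitted maximal effect; on the % scale 0 is the no-effect control and ±100 the full control effect; nearly all actives have a fitted effect of over 65% in size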
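Cells, 2000/well, grown 16–24 h in DMEM 10% FBS with 0.5 mg/ml G418, then compounds plus […] (300 uM addition stock), 30 min at 37C. cAMP read by HTRF (cAMP-d2 and anti-cAMP antibody-K in lysis buffer) after 30 min RT.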
D2 agonist: human D2 receptor agonism in beta-arrestin assay. AID 624465. 0.084% of 360,000 active. activation, % (test concentration not listed). DiscoveRx PathHunter D2 beta-arrestin, luminescence, 90 min; 100% = 57 uM dopamine signal. P14416; in the data active = activation above about 40%; inconclusive = about 15% to 40%; inactive = below about 15%; further: compound concentration not given in the record; the text of the record calls up to 30% inactive
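Agonist mode: compounds alone added to overnight-plated D2 PathHunter cells for 90 min at 37 C, with 57 uM final dopamine (EC100) defining full response. Beta-arrestin recruitment detected by chemiluminescent reagent, read after 1 h at ambient temperature.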
* hit, by the source's call; ? = inconclusive; . = not tested or not shown; [ ] = remark or other dose.

Sample of the layout (2 entries):
Each structure is followed by: D2 PAM, CtBP-E1A blk, gsp agonist, Six1-Eya2 blk, gsp antag, D2 agonist
1) CCCCNC(=O)C(=O)NCc1ccncc1
  -1, 8, 4%, -2, 8%, -4.7
2) COc1c(/C=N/Nc2nc(N3CCCCC3)nc(N3CCCCC3)n2)cccc1[N+](=O)[O-]
  -1, 3, -8%, -2, -11%, -0.4

The list itself, from the first entry:
Each structure is followed by: D2 PAM, CtBP-E1A blk, gsp agonist, Six1-Eya2 blk, gsp antag, D2 agonist
1) CCCCNC(=O)C(=O)NCc1ccncc1
  -1, 8, 4%, -2, 8%, -4.7
2) COc1c(/C=N/Nc2nc(N3CCCCC3)nc(N3CCCCC3)n2)cccc1[N+](=O)[O-]
  -1, 3, -8%, -2, -11%, -0.4
3) COc1cccc(/C=C/c2nc(S(=O)(=O)c3ccccc3)c(N(C)C)o2)c1
  -9, 8, ?, 3, 5%, -0.7
4) CCCC(=O)NC(c1ccccc1OC)c1ccc2cccnc2c1O (stereo not given)
  1, -84*, 12%[15.4 µM], -88*, 5%, -4.9
5) CSC1=N/C(=C/c2cccnc2)C(=O)N1Cc1ccccc1
  -2, 6, 8%[15.4 µM], 6, 14%, 0.0
6) O=C(NCCN1CCOCC1)c1cc(-c2ccccc2Cl)on1
  -10, -1, -11%, -7, 1%, -2.1
7) Cc1ccccc1-c1nn(-c2ccc(F)cc2F)cc1CNC1CC1
  -6, 1, 18%[15.4 µM], 8, 4%, -5.3
8) O=C(NCCc1c[nH]c2ccccc12)/C(=C\c1cccnc1)NC(=O)c1ccco1
  -15, 4, ?, 10, 3%, -1.4
9) CN(C)S(=O)(=O)c1ccc(Cl)c(NC(=O)CN2C(=O)NC3(CCCC3)C2=O)c1
  -5, 3, 14%, 1, 5%, -2.3
10) Cc1cnc(C(=O)NCCc2ccc(C(F)(F)F)cc2)cn1
  -6, -1, 7%[15.4 µM], -1, 10%, 0.8
11) COc1ccc(C2C=C(c3ccc(F)cc3)NC(=S)N2)cc1OC (stereo not given)
  -10, ., 3%, -2, 45%[activator], -4.3
12) Cc1cc(C(=O)NNS(=O)(=O)c2cccc(Cl)c2)nn1C(C)(C)C
  -18, ., -16%, 5, -5%, -1.3
13) COc1ccc(NC(=O)c2cnn(-c3ccccc3)c2C)c(OC)c1
  -2, 0, -5%, 0, -9%, 4.1
14) CN(C)/C=N/c1nc(-c2ccc3ccccc3c2)cs1
  -10, -11, ?, -15, -19%, -3.0
15) Cc1cc(C)c[n+](C(C)C(=O)c2ccc(Cl)cc2)c1 (stereo not given)
  -14, -14, -11%[15.4 µM], 18, 1%, -1.8
16) CCN(CC)c1ccc(/C=N/NC(=O)Nc2nonc2N)cc1
  -11, -1, 10%, -25, ?, -4.1
17) CCCCCOc1ccc(C(=O)Nc2ccc(S(=O)(=O)Nc3cc(C)on3)cc2)cc1
  -1, 4, 14%, 8, -1%, 5.5
18) CC(=O)c1cc(O)c2ccccc2c1O
  5, ., -10%, -26, -12%, ?
19) NNC(=O)c1ccc(CN2C(=O)c3cccc4cccc2c34)cc1
  -5, ., 28%, 7, -16%, -3.1
20) CN(c1ccc(OCC(=O)OCC(=O)c2c(N)n(C)c(=O)n(C)c2=O)cc1)S(=O)(=O)c1ccc2ccccc2c1
  19, -8, ?, -9, 1%, 0.2
21) CCOC(=O)[C@H]1[C@H]2COc3ccc(Br)cc3[C@H]2N2C(=O)CNC(=O)[C@@]12C
  -5, -1, -8%, -2, -5%, -1.1
22) c1ccc(Cn2ccnc2-c2ccco2)cc1
  15, 3, 0%, -4, -13%, -0.3
23) O=C(CNC(=S)NC(=O)c1ccc(Br)o1)c1ccccc1
  -13, 0, -2%[15.4 µM], 4, ?, 1.3
24) Cc1ccc(CNC(=O)c2cc(C3CC3)nc3c2cnn3C(C)C)cc1
  -43, ., 1%, 10, -16%, 2.3
25) CC(=O)Nc1c(C)ccc([N+](=O)[O-])c1C
  -2, -3, -33%[inhibitor], 8, 4%, -5.7
26) COc1ccc(N2CCN(C(c3cccs3)c3nnnn3C3CCCC3)CC2)cc1 (stereo not given)
  -20, -23, ?, ?, 3%, 1.0
27) CCOC(=O)CC(=O)N/N=C/c1c(N)n(C)c(=O)n(C)c1=O
  5, 7, -24%, 5, -8%, 3.1
28) C=CCSc1nccc(=O)[nH]1
  1, 10, -13%[15.4 µM], ?, 17%, -6.9
29) CCN(CC)CCCNC(=O)c1[nH]c2ccccc2c1Sc1ccc(Cl)cc1
  -15, -6, 13%[15.4 µM], 0, 6%, -2.3
30) CCOc1ccccc1C(=O)Nc1cc2c(cc1N1CCCC1)n(CC)c(=O)n2CC
  -14, ., 3%, ?, -30%, 2.3
31) CN(C)/C=C(/C(=O)c1ccc(Cl)cc1)S(=O)(=O)c1ccccc1
  -10, -8, -33%[inhibitor], -5, -4%, -1.6
32) COc1cc(OC)c(OC)cc1CN1CCN(C(=O)c2cccc3ccccc23)CC1
  -13, -10, -52%, -9, -12%, 0.1
33) CC1=C(C(=O)OCC2CCCO2)C(c2coc3ccccc3c2=O)C2=C(CCCC2=O)N1 (stereo not given)
  -6, 11, ?, 6, 5%, -2.9
34) CC(C)=N/N=C(\N)SCc1ccccc1
  -2, 1, 6%[15.4 µM], 0, 10%, -1.4
35) O=C1CC(c2ccco2)Cc2nc(NCC3CCCO3)ncc21 (stereo not given)
  -16, 4, -5%, -1, 8%[15.4 µM], -0.5
36) Cc1nc(CS(=O)c2ccc(Cl)cc2)cc(N2CCOCC2)n1 (stereo not given)
  -1, 1, 1%, 8, 0%, -1.9
37) O=C(N/N=C/c1ccc(-c2cccc(C(F)(F)F)c2)o1)c1cccc(F)c1
  10, -15, -2%, -15, ?, 3.0
38) COc1cccc2c1cc1c(=O)n(CC(=O)NCCCc3ccccc3)nc(C)n12
  2, ., -12%, 4, 7%, -1.3
39) O=[N+]([O-])c1ccc(Nc2ccc(Cl)cc2)nc1
  3, 5, 3%, -7, 14%, 8.3
40) CC1CN(C(=O)c2ccc3c(c2)OCO3)OC(c2ccccc2)O1 (stereo not given)
  13, 7, -60%, 5, 11%[15.4 µM], -1.0
41) COc1ccc(NC(=O)N(C)C[C@H]2Oc3ccc(NS(=O)(=O)c4c(C)noc4C)cc3C(=O)N([C@H](C)CO)C[C@@H]2C)cc1
  -4, 6, ., 0, 8%, -4.9
42) CCCCCCCN(C(=O)CCl)c1ccccc1C
  -5, 1, 13%, -1, 8%, -2.0
43) CC(C)C[C@H]1COCCS(=O)(=O)N1Cc1ccccc1F
  -8, ., -32%[inhibitor], 5, 11%, -2.1
44) COc1ccc(OC)c(CN2CCN(Cc3ccc(OC)c(OC)c3OC)CC2)c1
  -48, -2, -99%[inhibitor], -3, ., -4.1
45) CC(C)c1ccc(N2C(=O)CC(Sc3nc4ccccc4o3)C2=O)cc1 (stereo not given)
  -6, 8, -2%, 4, 13%, -1.0
46) COc1cccc(NC(=O)c2cncs2)c1
  -4, 4, -43%[inhibitor], -3, 13%, -5.7
47) Cc1cc(Cl)ccc1OCc1nnc(-c2ccccc2C)o1
  7, 9, -3%[15.4 µM], -1, -3%, -5.6
48) Cc1c(C(=O)NCc2cccnc2)oc2ccc(S(=O)(=O)N3CCCCC3)cc12
  0, 5, -47%[inhibitor], 2, ?, 0.3
49) Cc1ccc(O)c(NC(=S)NC(=O)/C=C/c2ccco2)c1
  -3, -3, 6%, 0, -2%, -1.6
50) CCN(CC)C(=O)c1ccc(-c2nnc(Nc3ccc(C(=O)N(C)C)cc3)c3ccccc23)cc1
  7, -2, -30%, -3, -9%, 8.1
51) CCC1(C)Cc2c(sc3c2c(=O)n(C)c2nnc(SCC(=O)c4ccccc4)n32)CO1 (stereo not given)
  -1, 4, 21%, 4, -20%, -2.1
52) Cc1cccc(NC(=O)N2CCc3ccccc3C2)c1C
  -5, -1, -66%[inhibitor], 0, -6%, -6.3
53) Cc1cc(OC(C)C(=O)NCCCn2ccnc2)c2c(C)c(C)c(=O)oc2c1 (stereo not given)
  2, 4, 1%, 3, -3%, 6.4
54) CCn1cc(C(=O)OCC(=O)N(C)Cc2ccccc2)c(=O)c2ccc(C)nc21
  1, 1, -2%[15.4 µM], -14, 4%, -0.3
55) COCCNC(=S)N/N=C(\C)c1ccc(Cl)c(Cl)c1
  -13, -8, -9%, -11, -2%, -4.8
56) CC1(C)C(=O)NCCN1C(=O)CSc1nccc(-c2ccc(Br)cc2)n1
  -5, ?, -40%, -14, -12%, -0.3
57) O=Cc1ccc(OCC(=O)NC(=O)NC2CCCCC2)cc1
  12, 5, 0%, 6, -15%, -0.4
58) CCOC(=O)N/N=C/c1ccc(OCCSc2ccc(Cl)cc2)c(OC)c1
  7, 17, -10%[15.4 µM], -8, -26%, -0.1
59) O=C(Nc1nnc(-c2ccco2)o1)C1CC1
  -18, -16, -1%[15.4 µM], -17, 7%, -2.9
60) CN(CC(=O)Nc1ccccc1Br)CC(=O)NC(c1ccccc1)c1ccccc1
  -12, -1, 108%[15.4 µM], 1, -22%, -2.1

(continued)
Each structure is followed by: D2 PAM, CtBP-E1A blk, gsp agonist, Six1-Eya2 blk, gsp antag, D2 agonist
61) CCCCCCCCC(NC(=O)c1ccc(C#N)cc1)C(=O)NCCC (stereo not given)
  -4, 8, 21%, 1, 12%, -3.0
62) Cc1cccc(-c2noc(CCC(=O)NCc3ccccc3)n2)c1
  -6, 1, 4%, 2, -4%, -3.8
63) COc1ccc2[nH]c(C(=O)N3CCC(n4nccc4NC(=O)C4CC4)CC3)c(C)c2c1
  -4, 1, -30%, 1, -4%, 0.8
64) CCCNC(=O)CCc1cc(C(C)(C)C)c(O)c(C(C)(C)C)c1
  -7, ., 5%, -6, -18%, -6.2
65) COc1ccccc1/C=N/NC(=O)c1cc2c(OC)c(OC)ccc2[nH]1
  -7, ., -18%, -13, 18%, ?
66) CC(C)(C)OC(=O)C[C@@H]1C/C=C\C[C@H](CC(=O)N(CCO)Cc2ccccc2)C(=O)N[C@@H](c2ccccc2)COC1=O
  -7, -5, 1%, 6, -9%, -1.1
67) Cc1ccc(C(=O)Nc2nc(-c3ccccc3)c(-c3ccccc3)o2)cc1
  -24, 0, -4%[15.4 µM], -13, -8%, -0.5
68) Cc1cc2nnc(SCC(=O)Nc3ccc(Cl)cc3)n2c(N)n1
  -12, -13, -1%[15.4 µM], -2, 8%, -2.2
69) Cc1ccc(CS(=O)(=O)CCC(=O)NCCc2ccccc2)cc1
  -2, -14, -14%[15.4 µM], 6, 2%, -2.0
70) COC(=O)c1[nH]c2cc(OC)ccc2c1N=CN(C)C
  2, ., 28%, -11, 0%, -3.6

Screening data deposited in PubChem by National Center for Advancing Translational Sciences (NCATS).
